# Source: PubChem BioAssay (Center for Chemical Genomics, University of Michigan)
# HIV TAR-Tat: TAR RNA-Tat peptide displacers, HIV-1, primary screen, biochemical, FRET, FAM/TAMRA-labeled Tat. HIV-1 TAR RNA, Tat peptide displacement FRET; stronger effect = higher value. z-score (no concentration beside the values). 0.6% of 100,000 active. AID 1259389, 2018;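 also: score is relative to mean and SD of negative controls; some compounds called inactive have numbers as strong as hits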
# CDC25B CDK2 inh: primary biochemical HTRF screen for blockers of M-phase inducer phosphatase 2 binding to CDK2/cyclin A; P30305+P24941; HTRF CDC25B-CDK2/CyclinA binding, anti-His/anti-Flag; stronger effect = higher value; z-score (no concentration beside the values); 0.72% of 94,000 active; AID 1259370, 2018;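 also: score is relative to mean and SD of negative controls; strong numbers were not always called active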
# Starred values were filed as active, the others as inactive; · = no result given.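 The calls were made as follows: active = z-score from 3 up in half or more of its runs; inactive = the rest.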
# Second line of a record: CDC25B CDK2 inh, HIV TAR-Tat
- Cc1cc(C)nc(Nc2nc3ccccc3[nH]2)n1
    0.01, -0.95
- O=S(=O)(c1ccc2[nH]c3c(c2c1)CCCCC3)N1CCN(C2CCCCC2)CC1
    ·, -0.09
- Cc1nn(C(C)C(=O)Nc2cc(F)ccc2F)c(=O)c2nn(-c3ccccc3)c(C)c12 (stereo not drawn)
    ·, -0.61
- O=C1CCSc2ccc(S(=O)(=O)N3CCN(C(c4ccccc4)c4ccccc4)CC3)cc2N1
    ·, 2.2
- Cc1c(Cl)cccc1-n1ncnc1-c1ccc2c(c1)OCO2
    -2.5, 0.53
- S=c1[nH]nc2sc3ccccc3n12
    -2.8, ·
- O=S(=O)(Nc1ccc(O)c(-c2c(O)ccc3ccccc23)c1)c1ccc(F)cc1
    -0.51, ·
- CCOC(=O)N1CCC(NC(=O)CCc2c(C)nc3ncnn3c2C)CC1
    -2.3, -0.94
- CCCn1c(N(C)C)nc2c1c(=O)n(C)c(=O)n2C
    -2.5, ·
- CC1CCN(C(=O)c2cn[nH]c2C2CCNCC2)CC1
    ·, -0.43
- O=C(CSc1nccn1C1CCCC1)Nc1ccc2c(c1)OCCO2
    ·, 1.7
- Cc1ccc(C(=O)CSC#N)o1
    -3.3, -0.9
- C=CCN(c1ccccc1)S(=O)(=O)c1ccc2c(c1)C(C)(C)C(=O)N2C
    ·, 2.5
- C/C(=N\C(=O)NN)c1cnn(-c2ccccc2)c1C
    -1.6, ·
- O=C(NC(=S)Nc1ccc2c(c1)OCCO2)c1ccccc1
    -1, ·
- CCOc1ccc(NC2CC(=O)N(c3ccc(N4CCOCC4)cc3)C2=O)cc1 (stereo not drawn)
    -1.2, 0.26
- O=C(Nc1ccc(F)cc1F)N1Cc2cccn2-c2ccccc21
    ·, 0.47
- CCCCN(CC)CCCNc1ncnc2onc(-c3ccc(F)cc3)c12
    ·, 0.24
- CCc1cc2c(cc3c(=O)n(CC(=O)N4CCN(CC)CC4)nc(CC)n32)s1
    -1.8, 1.4
- Cc1ccc(-c2nnc(SCC(=O)O)o2)cc1
    0.78, -0.02
- O=C(c1cc(=O)c2cc(F)ccc2o1)N(Cc1ccco1)c1ccccn1
    -0.66, 1.2
- Cc1ccc(NS(=O)(=O)c2cc3c(cc2C)NC(=O)CO3)c(C)c1
    ·, 1.3
- Cc1ccc(NC(=O)Nc2nc3ccc(S(C)(=O)=O)cc3s2)cc1
    -1.9, 1.4
- CC(C)Cn1cc(NC(=O)N2CCCCC2C)c2ccccc2c1=O (stereo not drawn)
    ·, 2
- O=C(c1ccco1)N1CCN(C(=O)C2(c3cccs3)CCOCC2)CC1
    ·, 0.55
- CCn1cc(C(=O)Nc2ccc3c(c2)OCO3)c(=O)c2ccc(C)nc21
    ·, 2
- COc1nc2ccccc2cc1-c1noc(-c2cccc(C)c2)n1
    -1, 2.6
- CCCNC(=O)C1CCC(Cn2c(=O)c3sccc3n(CC(=O)NC3CCCCC3)c2=O)CC1 (stereo not drawn)
    ·, 0.48
- Fc1ccc2c(c1)nc(N1CCCNCC1)c1cccn12
    5.8, -0.55
- CCN1C(=O)C2(c3ccccc31)c1c(oc3ccccc3c1=O)C(=O)N2CCO (stereo not drawn)
    -1.3, 1.9

# Given with bars between the fields: five of the compounds above.
Molecule | CDC25B CDK2 inh | HIV TAR-Tat
CCOC(=O)N1CCC(NC(=O)CCc2c(C)nc3ncnn3c2C)CC1 | -2.3 | -0.94
CCCn1c(N(C)C)nc2c1c(=O)n(C)c(=O)n2C | -2.5 | ·
CC1CCN(C(=O)c2cn[nH]c2C2CCNCC2)CC1 | · | -0.43
O=C(CSc1nccn1C1CCCC1)Nc1ccc2c(c1)OCCO2 | · | 1.7
Cc1ccc(C(=O)CSC#N)o1 | -3.3 | -0.9

# (next part)
# Second line of a record: CDC25B CDK2 inh, HIV TAR-Tat
- C=CCNC(=O)CSc1nc(-c2cccs2)cc(C(F)(F)F)n1
    -0.16, 2.2
- COc1ccc(-c2nnc(SCCC(=O)O)o2)cc1
    -1.5, -0.4
- CC(C)CCC1=NN(C(=O)C(C)C)C(O)(C(F)(F)F)C1 (stereo not drawn)
    -0.28, ·
- COc1ccc(-c2nnc(SCc3cc(=O)n4[nH]c(-c5ccccc5)nc4n3)n2C)cc1
    ·, 1.4
- CCC1CCCCN1C(=O)Cn1c(=O)oc2cc(S(=O)(=O)N3CC(C)CC(C)C3)ccc21 (stereo not drawn)
    -1.5, 0.78
- Cc1ncc(-c2ccc(C)c(S(=O)(=O)Nc3cccc(Cl)c3C)c2)o1
    ·, 1.1
- CN(C)c1nc(Oc2ccc(=O)n(C)n2)nc(N2CCCCC2)n1
    4.1, 0.69
- NS(=O)(=O)c1ccc(NNC(=S)NCc2ccc(F)cc2)cc1
    -0.39, ·
- Cc1ccc(S(=O)(=O)c2nnn3c2nc(N2CCCCC2)c2ccccc23)cc1
    -1.4, -0.34
- N#CC(=Nc1ccc(C2CCCCC2)cc1)C1=C(O)c2ccccc2C1=O
    -2.5, ·
- CCc1cccc(-n2nnc(-c3nc(-c4ccccc4Cl)no3)c2N)c1
    ·, 0.16
- Clc1ccc(-c2nnc(Cc3csc(-c4cccs4)n3)o2)cc1
    0.48, ·
- Clc1cccc(N2CCN(CCNc3nc4ccccc4c4nc(-c5ccncc5)nn34)CC2)c1
    -1.2, 0.3
- Cc1cc(Nc2cccc(C(F)(F)F)c2)n2ncnc2n1
    -0.27, ·
- CCOC(=O)CNc1c(-c2ccc(F)cc2)nc2cnccn12
    0.47, ·
- COc1cc(OC)c(NS(=O)(=O)c2cc(-c3cc(C)no3)ccc2OC)cc1Cl
    ·, 0.02
- O=C1CCC(=O)N1CNc1cccnc1
    0.52, ·
- O=C(NC1CCN(Cc2ccccc2)CC1)C1CC(=O)N(Cc2ccco2)C1 (stereo not drawn)
    -2.7, ·
- CC(CC(=O)Nc1cccc(Cl)c1)S(=O)(=O)c1ccc2c(c1)CCN2C(=O)C1CC1 (stereo not drawn)
    ·, -0.25
- CSc1ccc(C2OC(c3ccc(OC(C)=O)cc3)=NN2C(C)=O)cc1 (stereo not drawn)
    ·, 1.5
- Cc1ncc(CO)c2cc(C(=O)c3ccccc3)c(=O)oc12
    -1.2, 2.8
- Cc1cccc(OCC(=O)OCc2cc(=O)n3nc(C)sc3n2)c1
    ·, 0.31
- Cc1nn(S(=O)(=O)c2ccccc2)c(C)c1S(=O)(=O)N1CCCC(C)C1 (stereo not drawn)
    ·, 0.16
- O=c1[nH]c2ccc(Cl)cc2c2oc(-c3ccccc3)nc12
    -0.76, ·
- CCOCc1nc2sc(C)c(-c3ccccc3)c2c(=O)[nH]1
    0.3, 1.6
- O=C(Nc1cccc2ncccc12)c1cn(-c2ccc(F)cc2)nn1
    0.03, 1.1
- CCn1cc(Br)c(C(=O)OCC23COC4c5ccccc5OC(C)(CC2C)C4C3C)n1 (stereo not drawn)
    -1.3, -0.65
- NS(=O)(=O)c1ccc(CNS(=O)(=O)Cc2ccccc2)cc1
    -0.56, ·
- O=C(Cn1c(=O)n(CCCS(=O)(=O)C2CCCCC2)c(=O)c2ccccc21)c1ccccc1
    1.8, 0.56
- Clc1cccc(-c2nc(-c3ccncc3)no2)c1
    0.78, 0.87
- Cc1ccnc(NC(=O)Nc2cccs2)c1
    1.8, 1.5
- CC1CC(C)CN(C(=O)Cn2c(=O)oc3cc(S(=O)(=O)NC4CCCC4)ccc32)C1 (stereo not drawn)
    1.1, 0.54
- CN(Cc1ccco1)C(=O)CCS(=O)(=O)c1ccc2c(c1)NC(=O)CS2
    ·, 0.65
- Nc1ccc2ccccc2c1N=Nc1ccccc1Cl
    0.69, ·
- CCOC(=O)c1c(NC(=O)c2ccc3c(c2)OCCO3)sc2c1CC(C)(C)NC2(C)C
    ·, 0.34
- COc1cccc(C2CC(=O)Nc3nc(N)[nH]c(=O)c32)c1OC (stereo not drawn)
    -1.6, -0.24
- Nc1c(-c2nc(-c3ccc(F)cc3)no2)nnn1-c1ccc(F)cc1F
    ·, -1.6
- COc1cc(C(c2c(C)[nH][nH]c2=O)c2c(C)[nH][nH]c2=O)ccc1OC(C)C
    -1, -2.2
- CCCn1cnc2ccccc2c1=O
    0.37, 0.21
- N#Cc1nc(/C=C/c2cccs2)oc1N1CCCCC1
    -2.8, 0.41
- O=C1SC(Nc2ccccc2)C(=O)N1Cc1ccccc1 (stereo not drawn)
    -0.99, ·
- Oc1ccc2ccccc2c1C(c1cccs1)N1CCCCC1 (stereo not drawn)
    -1.1, ·
- CC1(C)Cc2c(c(N3CCOCC3)nc3sc4c(NCc5ccccc5)ncnc4c23)CO1
    -2, ·
- CCOC(=O)c1noc2nc(C)nc(N3CCC(C(=O)OCC)CC3)c12
    ·, 0.51
- CS/C(N)=N/N=C(\C)c1ccc(Cl)c(Cl)c1
    -0.83, ·
- CCOCCOC(=O)CCSc1n[nH]c(=O)[nH]c1=O
    -0.44, ·
- C=CCn1c(N2CCOCC2)nc2c1c(=O)n(C)c(=O)n2C
    -1.2, 1.6
- CNC(=O)c1c(NC(=O)c2ccc3c(c2)OCCO3)sc2c1CCCC2
    ·, 1.2
- CNC(=O)c1ccc2c(c1)C1C3CCC(C3)C1C(c1ccccc1)N2 (stereo not drawn)
    -2.5, ·
- Cc1ccc(N2CSC3=C(C#N)C(c4cccc(F)c4)CC(=O)N3C2)cc1 (stereo not drawn)
    4.7*, -1.2
- CCC(C)NC(=O)C1=C(C)C(=O)OC12CCN(C(C)=O)CC2 (stereo not drawn)
    ·, 1.5
- Cc1ccc(S(=O)(=O)N2CC=C(c3c(C)[nH]c4ccccc34)CC2)cc1
    -1.2, 0.58
- CCOC(=O)C1C2C=CC3(CN(Cc4cccs4)C(=O)C13)O2 (stereo not drawn)
    -0.28, ·
- CC1CCc2c(sc(NC(=O)c3cccs3)c2C(N)=O)C1 (stereo not drawn)
    -0.52, ·
- Cn1cc(S(=O)(=O)N2CCOCC2)cc1C(=O)Nc1ccc(F)cc1F
    ·, 2.4
- COc1ccc([C@@H]2Sc3ccccc3N(CCN(C)C)C(=O)[C@@H]2OC(C)=O)cc1
    0.05, ·
- Cc1ccc(C2CC(C(F)(F)F)n3ncc(C(=O)O)c3N2)cc1 (stereo not drawn)
    -0.2, 1.3
- CCN1C(C(=O)c2ccccc2)=C(OC(=O)c2ccccc2OC(C)=O)c2ccccc2S1(=O)=O
    -1, 0.48
- CC(C)CNc1cc(N2CCOCC2)c2noc3c2c1C(=O)c1ccccc1-3
    9.2*, -3.7
- CC1CCN(C(=O)C2CCN(c3nnc(N4CCCCC4=O)s3)CC2)CC1
    ·, 1.7

# Continuation:
# Second line of a record: CDC25B CDK2 inh, HIV TAR-Tat
- CC1=C(C(=O)N2CCCCC2)C(c2cccc(O)c2)C2=C(CC(C)(C)CC2=O)N1 (stereo not drawn)
    -1.7, ·
- COc1ccc(-n2c(=O)c(C#N)cc3c(=O)n4ccccc4nc32)cc1
    -0.04, -1.1
- N=C1/C(=C2/Nc3ccccc3S2)CC(=O)N1C1CCCCC1
    0.97, -5.5
- Cc1csc(NC(=O)NCCCSc2ncccn2)n1
    ·, 0.7
- Cn1nc(C(=O)N2CCN(c3ccccc3F)CC2)c2c1-c1ccccc1OC2
    -0.57, 1.2
- CC(C)Cn1cc(NC(=O)N(C(C)C)C2CCCCC2)c2ccccc2c1=O
    ·, 2.3
- CC(Sc1nnc(-c2ccncc2)o1)C(=O)Nc1ccc2c(c1)OCCO2 (stereo not drawn)
    11*, 1.3
- C=CCNC(=O)c1cc(Cl)c(NC(=O)C2=C(C)OCCS2)cc1OC
    ·, -0.08
- CC1=C(C(=O)OC2CCCCC2)C(c2ccccc2OC(C)C)C2=C(CCCC2=O)N1 (stereo not drawn)
    0.07, -1.4
- O=C1COc2cc(-c3c(N4CCOCC4)c(=O)c3=O)ccc2N1
    ·, 0.45
- Cc1cc(F)ccc1NCc1ccc2c(c1)OCCO2
    -2.5, 1.4
- CN[C@@H]1C(O)[C@@H](O[C@@H]2[C@@H](O)[C@H](O[C@H]3OC(CN)=CC[C@H]3N)[C@@H](N)C[C@H]2N)OC[C@]1(C)O (stereo partly drawn)
    ·, 0.98
- Cn1c(=O)cc(SCC(=O)NCC2COc3ccccc3O2)c2ccc(Cl)cc21 (stereo not drawn)
    -0.79, -0.22
- CCOC(=O)Cn1c(CN2CCN(c3ccc(F)cc3)CC2)nc2c1c(=O)n(C)c(=O)n2C
    -1.1, 1.6
- CS/C(NCc1cccnc1)=C(/C#N)C(=O)c1cccs1
    -0.25, ·
- CCN(CC)CCCn1c(C)c(C)c2c1ncn1nc(-c3cccc(C)c3)nc21
    -0.78, 1.8
- O=C1C(Cl)=C(OC(CO)CO)C(=O)c2ccccc21
    -1, ·
- Cc1cccc(C2N3CC4(C)CN2CC(C)(C3)C4O)c1 (stereo not drawn)
    -1.9, ·
- O=C(Nc1ccc(Br)cc1)c1nc2ccccc2nc1Cl
    -0.25, 0.09
- Cc1ccc(S(=O)(=O)Nc2cnc3ccccc3c2)c(C)c1C
    -0.81, 0.12
- Cc1ccc2cc(CCNC(=O)Cc3cccs3)c(=O)[nH]c2c1C
    -1.2, ·
- COc1ccc(-c2cc(C(F)(F)F)nc(SCCC(=O)N3CCCC3)n2)cc1
    -0.75, 1.6
- Cc1cc2oc(C(=O)NCC(c3ccco3)N(C)C)cc(=O)c2cc1C (stereo not drawn)
    -0.64, -0.22
- Cc1c(CCOC(=O)CC23CC4CC(CC(C)(C4)C2)C3)sc[n+]1Cc1ccc([N+](=O)[O-])cc1
    -1.9, ·

# Filtered by structure: the compounds so far containing a COOH group
# Second line of a record: CDC25B CDK2 inh, HIV TAR-Tat
- Cc1ccc(-c2nnc(SCC(=O)O)o2)cc1
    0.78, -0.02
- COc1ccc(-c2nnc(SCCC(=O)O)o2)cc1
    -1.5, -0.4
- Cc1ccc(C2CC(C(F)(F)F)n3ncc(C(=O)O)c3N2)cc1 (stereo not drawn)
    -0.2, 1.3
